PrP UTR inh = inhibition of PrP 5' UTR reporter expression; cell-based PrP 5' UTR mRNA reporter, plate reader; inhibition, % (test concentration not listed); 0.35% of 340,000 active;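 active = every replicate at 50% or more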;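 note: 0 = median of the neutral control wells; tested in H4 reporter cells; numbers are from one replicate; inactives centre near -14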
Sa ugtP lethal = growth inhibition of S. aureus ugtP deletion strain; S. aureus RN4220 ugtP deletion, OD600 growth, 16 h; some inactives read as strong as hits; growth inhibition, % (no concentration beside the values); 0.54% of 330,000 active; AID 1259309;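 active = z-score under -3 and OD600 up to 0.15 on both plates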;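 note: plate controls were untreated wells for no effect and antibiotic for full effect; wells of about 80 µL received 100 nL stock; the first replicate is given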
Mtb hypoxia inh = Mtb hypoxia fluorescent reporter inhibition | M. tuberculosis hypoxia-regulated fluorescent reporter, fluorescence | fluorescence inhibition, % (concentration not given with the values) | 0.1% of 300,000 active | AID 1159583;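 active = 35 to 45% if threefold the growth effect, above 45% if 1.5-fold the growth effect; inactive = the rest, general growth blockers included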;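 note: wells of about 50 µL received 100 nL stock; 0% = vehicle wells and 100% = reference inhibitor wells; whole bacteria with a GFP reporter of the hypoxia response; strong numbers were not always called active; many hits fall short of the cut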
Bead autofluor = counter-screen for toxin protease inhibitors: compound fluorescence; 3.1% of 360,000 active; compound autofluorescence counterscreen, microsphere flow cytometry; active compounds read high; AID 624483; fluorescence intensity (concentration not given with the values);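 active = at least 3 SD above the mean of all compounds, about 16000 in these data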;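 note: 100 nL of 1 mM stock went into each well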
BJeLR viability = BJeLR cell viability loss; BJeLR (HRASV12) viability, CellTiter-Glo ATP luminescence, 48 h; reference of the scale not given here; inhibition, % (no concentration beside the values); 0.17% of 300,000 active; AID 1554;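 active = replicate mean above 50%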;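 note: 50 nL library stock added to about 25 µL; numbers are from one replicate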
Sa RN4220 lethal = kills Staphylococcus aureus RN4220. inhibition, % (test concentration not listed). S. aureus RN4220 growth, OD600, 16 h. 0.33% of 330,000 active;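 active = z-score of -3 or lower and OD600 up to 0.18 on both plates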;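 note: plate controls were untreated cells for no effect and reference antibiotic for full effect; stock transfer was 100 nL into about 80 µL; one replicate is shown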
Mtb hypoxia inh growth = recorded beside Mtb hypoxia inh, whose call it bears; growth inhibition, %; measured here: M. tuberculosis growth (absorbance);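 0% = vehicle and 100% = reference antibiotic; read after six days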
* marks the source's active call; other numbers are inactive results; nt = no result given.

Molecule,Mtb hypoxia inh growth,Bead autofluor,PrP UTR inh,Mtb hypoxia inh,BJeLR viability,Sa ugtP lethal,Sa RN4220 lethal
CC(=O)Nc1ccc(S(=O)(=O)Nc2ccccc2C(=O)N2CCCCC2)cc1,3,3506,-22,2,12,7,1.3
Cc1ccccc1C(=O)NC(=S)NCCc1ccccc1,8,2069,1,2,7,9,8.4
C/C=C\C(=O)Nc1cccc(C2=NOC3(C2)C[C@@H](C(N)=O)N(C(=O)c2ccccc2)C3)c1 (some centres not stated),nt,3768,-22,nt,-10,nt,nt
O=C(Nc1ccccc1)C1=C[C@H](c2ccc(C(F)(F)F)cc2)C[C@H](OCCCCO)O1,nt,3876,-20,nt,9,nt,nt
CCOc1cccc(-c2nnc(SCC(=O)Nc3cccc(OC)c3)n2N)c1,9,21734*,1,3,1,-3,-1.5
O=Cc1c(NCc2ccc(F)cc2)c2ccccc2[nH]c1=O,-2,3959,-18,-3,1,8,1.8
CCN(CC)S(=O)(=O)c1cccc(NC(=O)CC2CCCC2)c1,4,3152,1,-7,1,6,-2.4
Cc1ccc(N2C(=O)CN(Cc3ccccc3)C2=S)cc1C,6,3670,-17,12,2,-2,11

Quoted at random: 5 entries already listed, in no set order.
Molecule,Mtb hypoxia inh growth,Bead autofluor,PrP UTR inh,Mtb hypoxia inh,BJeLR viability,Sa ugtP lethal,Sa RN4220 lethal
Cc1ccccc1C(=O)NC(=S)NCCc1ccccc1,8,2069,1,2,7,9,8.4
CCOc1cccc(-c2nnc(SCC(=O)Nc3cccc(OC)c3)n2N)c1,9,21734*,1,3,1,-3,-1.5
CCN(CC)S(=O)(=O)c1cccc(NC(=O)CC2CCCC2)c1,4,3152,1,-7,1,6,-2.4
O=C(Nc1ccccc1)C1=C[C@H](c2ccc(C(F)(F)F)cc2)C[C@H](OCCCCO)O1,nt,3876,-20,nt,9,nt,nt
O=Cc1c(NCc2ccc(F)cc2)c2ccccc2[nH]c1=O,-2,3959,-18,-3,1,8,1.8

Remaining list, next part.
Molecule,Mtb hypoxia inh growth,Bead autofluor,PrP UTR inh,Mtb hypoxia inh,BJeLR viability,Sa ugtP lethal,Sa RN4220 lethal
C=CC(COCc1ccccc1)N(C(=O)OC(C)(C)C)S(=O)(=O)c1ccccc1Br (configuration not stated),4,3664,0,4,7,4,4.1
O=C(COC(=O)Cc1ccc(Br)cc1)NCc1ccc(F)cc1,5,4289,-12,1,-15,4,2.8
CC1(C)Oc2ccc(/C=C/C(=O)N3CCOCC3)c(O)c2C(N2CCOCC2)C1O (configuration not stated),0,nt,nt,9,-3,7,2.5
CCc1ccc(/C=C2/SC(=S)N(CCC(=O)NCCCN3CCOCC3)C2=O)cc1,6,5809,-18,10,106*,11,2.1
O=c1cc2c(nn1Cc1ccc(Cl)cc1)-c1ccccc1CC2,8,2309,-1,8,-14,-14,-0.4
O=C(CCNS(=O)(=O)c1cccs1)NCc1ccccc1,9,5537,-7,4,-9,-1,1.9
O=C(CN(C(=O)CNC(=O)c1cccs1)c1ccc(F)cc1)NC1CCCC1,6,3696,-12,-2,-1,6,1.8
COc1ccc2nc(NCc3cccnc3)sc2c1,8,3923,-29,5,14,9,3.0
CCC(=O)Nc1ccc2c(c1)nc(CCN1CCN(c3ccccc3)CC1)n2C,-3,4617,-44,5,4,3,3.3
COc1cc(OC)c(C2=Nc3ccc(Br)cc3C(c3ccccc3)N2CC(=O)NN)cc1OC (configuration not stated),18,4602,-6,-5,0,-11,-1.8
O=C1COc2ccc(C(=O)COC(=O)c3ccc(S(=O)(=O)C(F)F)cc3)cc2N1,-1,5174,-11,4,4,5,1.7
Oc1ccc2ccccc2c1CN1CCN(c2ccccc2F)CC1,1,5685,-22,1,0,2,-12
O=C(NCC1CCCO1)c1ccc2c(c1)C(=O)N(C1CCCCC1)C2=O (configuration not stated),14,3230,15,4,7,-2,4.8
O=C(c1cnn2c(C(F)(F)F)cc(-c3ccco3)nc12)N1CCCc2ccccc21,nt,2350,-16,nt,-3,-2,1.0
Cc1ccc2cc(C#N)c(SCc3nnc(-c4ccccc4[N+](=O)[O-])o3)nc2c1,-3,2004,-16,9,9,10,5.4
CC(C)(C)c1ccc(OCCOc2ccc(C(C)(C)C)cc2NC=O)c(NC=O)c1,-9,3684,-3,-4,0,-27,3.6
CCc1ccc2ncc(S(=O)(=O)c3ccc(C)c(C)c3)c(N3CCCC3)c2c1,nt,3772,-2,nt,1,nt,nt
COc1ccccc1OCCCC(=O)Nc1ccc([N+](=O)[O-])cc1Br,8,4570,-31,14,-1,2,13
CCCCOC(=O)C1=C(C)Nc2ncnn2C1c1cc(OC)c(OC)cc1OC (configuration not stated),-2,23316*,-14,-5,-2,0,1.1
COCCNc1nc(=S)[nH]c2cc(OC)c(OC)cc12,nt,2253,-3,nt,6,6,-0.5
COc1cccc2sc(N(CCCN(C)C)C(=O)COc3ccc(Cl)cc3)nc12,17,4287,-12,13,4,8,-0.9
CC(Sc1nnc2ccccn12)C(=O)Nc1ccc(N2CCOCC2)cc1 (configuration not stated),7,3373,-20,7,nt,10,3.5
CN(C)c1ccc(N/C=C/C(=O)C(C)(C)C)cc1,3,2663,-48,7,2,12,3.8
COc1ccc2[nH]c(=O)c(CN(C(C)=O)c3ccc(C)c(C)c3)cc2c1,6,3262,-17,3,0,5,0.2
O=C(NCc1ccon1)C1CCC(=O)N(CCc2cccc(F)c2)C1 (configuration not stated),-7,4256,1,3,-10,17,6.8
CN(C)CCNc1c(N)c(=O)oc2ccccc12,13,4595,-29,1,-3,11,3.1
Cc1nc2ccccc2n1-c1nc(-c2ccco2)cc(C(F)(F)F)n1,-1,11582,0,-1,39,-1,6.0
Cc1ccc(S(=O)(=O)CC(=O)c2ccccc2[N+](=O)[O-])cc1,10,3116,-43,10,6,7,9.2
Cc1ccc(S(=O)(=O)N(C)C)cc1NC(=O)COC(=O)COc1ccc2c(c1)CCC2,5,6155,-9,-2,-5,-2,2.0
COc1cc(O)cc2c1[C@@H]1Oc3c(ccc(O)c3CC=C(C)C)[C@@H]1CO2,nt,5722,-10,nt,-6,-12,2.4
COc1ccc(-c2oc3cccnc3c2C=Cc2ccc(OC)c(OC)c2)cc1,3,nt,nt,3,nt,-25,4.8
c1ccc(-n2nc3ccccc3n2)cc1,0,3172,-37,4,3,-4,13

Whole records, quoted from the list:
CCC(=O)Nc1ccc2c(c1)nc(CCN1CCN(c3ccccc3)CC1)n2C as listed: Mtb hypoxia inh growth: -3; Bead autofluor: 4617; PrP UTR inh: -44; Mtb hypoxia inh: 5; BJeLR viability: 4; Sa ugtP lethal: 3; Sa RN4220 lethal: 3.3
Cc1ccccc1C(=O)NC(=S)NCCc1ccccc1 as listed: Mtb hypoxia inh growth: 8; Bead autofluor: 2069; PrP UTR inh: 1; Mtb hypoxia inh: 2; BJeLR viability: 7; Sa ugtP lethal: 9; Sa RN4220 lethal: 8.4

Remaining list, next part.
Molecule,Mtb hypoxia inh growth,Bead autofluor,PrP UTR inh,Mtb hypoxia inh,BJeLR viability,Sa ugtP lethal,Sa RN4220 lethal
O=C1CC(N2CCN(c3ccccc3Cl)CC2)C(=O)N1c1ccccc1 (configuration not stated),nt,3392,-21,nt,26,8,1.1
Cc1cccc(N(CC(=O)NC2CC3CCC2C3)S(=O)(=O)c2ccccc2)c1 (configuration not stated),5,6482,-14,6,16,3,4.0
COc1ccc2[nH]c(=O)c(CN(Cc3nnnn3Cc3ccccc3)CC3CCCO3)cc2c1 (configuration not stated),-4,6506,-13,7,15,1,1.4
CC1=NN(C(=O)c2ccccc2)C(O)(c2ccc(Br)cc2)C1 (configuration not stated),2,3739,-21,11,3,5,0.8
COc1ccc(CNC(=O)CS(=O)Cc2nc(-c3ccc(OC)c(OC)c3)oc2C)cc1 (configuration not stated),-5,4526,-13,0,0,3,2.5
CC(C)[C@H](Nc1ccc(S(=O)(=O)N2CCOCC2)cc1[N+](=O)[O-])C(=O)OCC(=O)N(C(C)C)C(C)C,10,2653,-22,-2,-8,0,2.5
Cc1cccc(NC(=O)C2CCN(C(=O)NC3CCCCC3)CC2)c1,-3,3731,0,8,4,1,2.7
CCC1=C(OC(=O)N(CC)CC)N2C(=O)OC(=NCC(=O)OC)[C@]2(Cc2ccccc2)C2C1=CCC1C(=O)N(C)C(=O)C12 (some centres not stated),8,nt,nt,4,nt,0,4.2
CN1CCN(S(=O)(=O)Cc2ccc(Cl)cc2)CC1,14,3510,-10,9,4,3,2.8
CSc1nc(-c2ccc(N(C)C)cc2)c(C#N)c(=O)n1C,8,4391,-28,14,1,11,5.5
COC(=O)c1ccc(CSc2nnc(CS(=O)Cc3ccc(Br)cc3)n2-c2ccccc2)cc1 (configuration not stated),11,2459,-23,-6,-5,-13,3.5
CC(=O)N(C)c1ccc(NC(=O)/C=C/c2ccccc2Cl)cc1,nt,4551,-33,nt,0,-11,-1.0
Cc1cccc(N2C(=O)C(O)=C(C(=O)c3cccs3)C2c2ccc(C(C)C)cc2)n1 (configuration not stated),2,6149,-27,19,3,-6,27
O=C(NCCc1ccccc1)[C@@H]1CC=C[C@@H]2CCN(Cc3ccccc3)C(=O)[C@@H]21,nt,4066,-7,nt,-3,nt,nt
COc1ccc(-c2nnc(SCC(=O)Oc3ccc(C)cc3)o2)cc1,nt,4766,-20,nt,-1,6,2.0
O=c1cc(N2CCc3ccccc32)[nH]c(=O)n1-c1ccc(Cl)cc1,-12,2254,-29,-1,nt,-3,2.5
CS(=O)(=O)N1CCc2cc(C(=O)OCC(=O)c3ccccc3)ccc21,nt,2996,-76,nt,6,1,7.3
N#CCCN1CCN(CCC#N)CC1,1,5730,-3,6,3,1,3.1
